# ALR H2O2 inh = human ALR oxidase inhibition via reduced H2O2 | P55789 | purified ALR, DTT oxidation, H2O2 HRP-luminol luminescence | inhibition, % (concentration not given with the values) | hit rate 3.8% among 290,000;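 active = mean and each replicate at 75% or more; inconclusive = only one of the two met; inactive = neither met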;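 note: stock transfer was 7.5 nL into about 7.5 µL; 0% = neutral wells and 100% = wells with inactivated enzyme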
# Target sequence (P55789 whole entry, looked up): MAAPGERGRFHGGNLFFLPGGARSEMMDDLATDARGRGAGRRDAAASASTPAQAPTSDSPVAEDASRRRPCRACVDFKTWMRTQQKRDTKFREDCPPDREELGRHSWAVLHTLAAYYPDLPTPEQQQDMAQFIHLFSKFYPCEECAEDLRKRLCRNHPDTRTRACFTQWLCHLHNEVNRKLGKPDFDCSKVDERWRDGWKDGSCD
# Beta2AR agonist = agonists of human beta-2 adrenergic receptor inducing internalization. Am2.2-beta2AR cells, FAP receptor internalization, flow cytometry; reference of the scale not given here. response, % (concentration not given with the values). hit rate 0.43% among 340,000. AID 504454;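 active = response above a set limit, near 3 SD of response in nonfluorescent compounds, cut at about 42% in these data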;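 note: stock transfer was 100 nL into about 11 µL; a reference agonist was the positive control; negative values mostly stem from fluorescent compounds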
# Target sequence (P07550 whole entry, looked up): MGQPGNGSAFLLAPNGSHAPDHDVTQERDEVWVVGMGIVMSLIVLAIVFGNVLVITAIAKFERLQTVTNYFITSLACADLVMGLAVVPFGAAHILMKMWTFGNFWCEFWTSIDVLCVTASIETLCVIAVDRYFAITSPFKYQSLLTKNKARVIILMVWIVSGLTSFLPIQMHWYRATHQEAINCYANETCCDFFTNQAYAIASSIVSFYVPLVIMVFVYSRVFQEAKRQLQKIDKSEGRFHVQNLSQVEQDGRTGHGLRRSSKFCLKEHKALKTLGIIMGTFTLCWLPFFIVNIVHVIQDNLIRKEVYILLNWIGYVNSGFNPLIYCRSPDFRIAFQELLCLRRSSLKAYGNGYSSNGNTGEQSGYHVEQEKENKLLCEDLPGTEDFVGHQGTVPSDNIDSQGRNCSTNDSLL
# T cruzi inh = T. cruzi replication inhibition | T. cruzi beta-gal in NIH3T3, luminescence, 90 h | inhibition, % (test concentration not listed) | hit rate 1.4% among 300,000 | AID 1885;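 active = mean inhibition across valid replicates above about 55%, limit read from the data; inconclusive = mean below that limit but half or more replicates reach it; inactive = mean below it, under half of replicates reach it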;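 note: signal also drops with host cell toxicity which is not excluded here; 0% = plate median of DMSO wells and 100% = zero luminescence signal; higher percent means less beta-gal luminescence so fewer parasites; stock transfer was 50 nL into about 50 µL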
# Ecoli rRNA inh = inhibitors of bacterial rRNA selective over humanized ribosomes; E. coli WT GFP vs humanized-ribosome RFP mutants, fluorescence, 24 h; hits give low values; DMSO median 0, no signal -100; GFP signal change (wild-type ribosome), % (concentration not given with the values); hit rate 1.6% among 350,000;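 active = significant combined selectivity score with lowered wild-type GFP, culture density cut under 30%, mutant RFP and density less affected; inactive = any of these conditions unmet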; note: one replicate is shown; some compounds called inactive have numbers as strong as hits
# Calb FLC = C. albicans growth modulation with fluconazole. C. albicans CaCi-2 (fluconazole-resistant clinical isolate) + fluconazole, Alamar Blue growth, 48 h. growth inhibition, % (concentration not given with the values). hit rate 0.57% among 300,000. AID 1979;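 active = most replicates above 75%; inconclusive = exactly half above 75%; inactive = most below 75%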;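 note: all wells also contain fluconazole at 8 µg/ml as a sub-toxic cotreatment; 0% = median of DMSO wells and 100% = median of geldanamycin control wells; wells of about 8 µL received 7.5 nL stock; the first replicate is given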
# A1 inh = inhibitors of the anti-apoptotic protein A1, read as caspase activation | MEF A1-2A-BIM cells, Caspase-Glo 3/7 luminescence, 3 h; percent of clofoctol response, vehicle zero | caspase activation, % (test concentration not listed) | hit rate 0.066% among 330,000;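 active = over half of replicate activation scores above 10%, or exactly half above 10 with the replicate mean above 10; inconclusive = replicate mean below 10 yet half the replicates above 10; inactive = over half of replicates below 10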;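 note: wells of about 30 µL received 50 nL stock; many hits fall short of the cut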
# LANA-H2B inh = blocks KSHV LANA binding to histone H2A/H2B | Q9QR71 | cell-free LANA-H2A/H2B peptide, fluorescence polarization | inhibition, % (concentration not given with the values) | hit rate 0.6% among 320,000 | AID 2629; in the data active = inhibition mostly above about 10%, no sharp cut-off; inactive = mostly below about 6.7%;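 note: stock transfer was 7.5 nL into about 10 µL; 0% = median of vehicle wells and 100% = median of positive control wells; one replicate is shown; the record names a cut of 25% in any replicate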
# Beta cell apopt = beta cell apoptosis inhibition; INS-1E cytokine-induced death, ATP luminescence, 48 h; percent of positive-control rescue, neutral wells zero; hit rate 0.8% among 300,000; protection from apoptosis, % (no concentration beside the values); AID 435005;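 active = all replicates at 75% or more, or half of them and the mean; inconclusive = half reach 75% but not the mean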;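 note: 0% = cytokine-treated negative control wells and 100% = positive control rescue; higher means more ATP so stronger rescue from cytokine killing; wells of about 40 µL received 100 nL stock; the first replicate is given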
# Ecoli rRNA inh OD600 = second read-out of Ecoli rRNA inh, no call of its own (marks repeat the call); OD600 change, %; measured here: OD600 growth;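 optical density of the mix in the first replicate; 0 = DMSO median and -100 = no signal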
# Ecoli rRNA inh RFP = recorded beside Ecoli rRNA inh, whose call it bears; RFP signal change, %; measured here: RFP humanized mutant strains;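 first replicate; 0 = DMSO median and -100 = no signal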
# Starred values were filed as active, the others as inactive; u = inconclusive; x = not tested or not shown. An excerpt (hit frequency here may not be typical).
structure,Beta2AR agonist,LANA-H2B inh,ALR H2O2 inh,Ecoli rRNA inh OD600,Ecoli rRNA inh RFP,Ecoli rRNA inh,Calb FLC,Beta cell apopt,T cruzi inh,A1 inh
O=c1[nH]n(CC2COC3(CCCCC3)O2)c(=O)c2ccccc12 (configuration not stated),5,1.1,3,-9,-3.8,-15,3,0,-14,0.3
O=C(Nc1ccccc1)c1cccc(NC(=O)c2ccco2)c1,-7,-2.0,-4,-6,-1.2,-16,0,-3,-18,0.0
COC(=O)C1C(=O)N2CCCSC2=C(C#N)C1c1cccs1 (configuration not stated),9,-1.3,19,x,x,x,35,x,4,-0.6
COc1ccc(/C(C)=N/OC/C(O)=C(\C#N)c2nc3ccccc3[nH]2)cc1OC,-28,0.7,1,6,-1.4,7,-16,-5,-20,-0.8
O=C(NNC(=O)c1nc2ccccc2[nH]1)OCc1ccccc1,8,-3.6,23,-19,14,-12,x,-12,x,0.8
O=C(CSc1nc2ccccc2o1)Nc1nccs1,-9,1.2,-13,19,2.4,27,-6,-2,-16,0.3
CCCCNC(=O)c1ccc(N2CCC3(CC2)OCCO3)c([N+](=O)[O-])c1,-4,-3.7,-4,x,x,x,21,-1,-7,1.5
CC1Cc2ccccc2N1C(=O)CCS(=O)(=O)c1cccs1 (configuration not stated),1,-3.0,-2,x,x,x,-1,x,4,0.2
On1c(-c2ccccc2Cl)nc2ncccc21,-2,-3.0,0,13,-0.6,-1,-5,-5,-11,0.0
O=C1NCC(COCC2CC=CCC2)O1 (configuration not stated),11,2.5,-10,x,x,x,-19,x,-13,0.3
CC(C)C[C@H](NC(=O)Nc1ccc(Oc2ccccc2)cc1)C(=O)O,-11,7.5,1,x,x,x,21,-9,-23,-0.3
CCOc1ccc(NS(=O)(=O)c2ccc(NC(=O)[C@@H]3CCCC[C@@H]3C(=O)O)cc2)cc1,-7,-1.1,3,x,x,x,0,-7,0,0.5
COC(=O)CCC(=O)OC1(C)C(=O)C=C2C=C(C3CC3)N(CCc3c[nH]c4ccccc34)C=C2C1=O (configuration not stated),-4,2.9,x,10,4.1,7,15,-1,11,-0.6
COc1ccc(OC)c(C2C(C(=O)Nc3ccccc3OC)=C(C)Nc3nc(CCCO)nn32)c1 (configuration not stated),-9,0.0,-32,-7,-0.1,1,-5,-5,10,-0.5
COc1ccc(OC)c(NC(=O)CSc2nncc3ccccc23)c1,-12,-2.1,x,11,0.0,15,-6,-15,10,0.5
COc1cc(NC(=S)Nc2ccc(Br)cc2Cl)c(OC)cc1Cl,1,4.1,x,x,x,x,8,-11,9,0.2
C=CCOc1cccc(C2C(C(=O)c3ccc(C)o3)=C(O)C(=O)N2CCCn2ccnc2)c1 (configuration not stated),-1,4.9,x,11,1.0,4,-4,-2,-16,0.2
Fc1cc(F)c2nc(Nc3nc4c(F)cccc4s3)sc2c1,1,-2.2,x,0,-2.3,4,-1,103*,-26,-1.0
Cc1ccc(S(=O)(=O)Nc2ccccc2C(=O)Nc2nc(-c3ccc(F)cc3)cs2)cc1,18,x,x,-64,-17,-43,-2,99*,-6,-0.1
O=c1ccc2ccc(Oc3ccc(Cl)cc3[N+](=O)[O-])cc2o1,-18,-0.8,x,11,-0.9,17,-7,1,2,0.6
COc1cc(NC(=O)Cc2ccccc2)c(C(=O)O)cc1OC,-2,3.4,2,-21,-4.1,-24,-7,-3,-7,0.5
Cc1ccc(C(O)(COC(=O)C(C)C)COC(=O)C(C)C)c(O)c1,-7,-0.1,28,6,5.5,1,-1,x,-6,0.9
O=C(CNC(=O)N1CC(=O)Nc2ccccc21)NCc1ccccc1Cl,-4,-4.4,-1,13,0.9,7,0,-7,-6,-0.9
CS(=O)(=O)N(Cc1ccccc1)c1ccccc1C(=O)Nc1ccccc1C(=O)NCc1ccco1,13,1.7,-10,-11,-5.0,-18,6,-5,-8,-1.2
C1=CC2CCC1ON2c1ccccc1 (configuration not stated),1,-5.1,-12,x,x,x,-4,1,-2,-1.3
CCn1c(C)nc2cc(C(=O)NNS(=O)(=O)c3ccc(C)c(C)c3)ccc21,5,-1.2,81*,x,x,x,-1,-8,-9,-0.3
CC(C)NC(=O)/C(=C/c1ccco1)c1ccccc1,1,1.4,x,x,x,x,3,-8,3,1.2
CNC(=O)Nc1cccc2cccnc12,1,7.0,-7,15,0.3,2,10,-3,-19,0.1
COc1ccc(CN(C)Cc2nc(Cc3ccccc3Cl)no2)cc1OC,-1,-3.1,1,-11,-1.5,-14,-2,-3,-10,0.7
COC(=O)CSc1nnc(-c2ccccc2OC)n1-c1ccc(C)cc1,4,1.9,2,x,x,x,29,4,-10,-0.3
CC1Oc2cc3oc4c(O)c5c(cc4c(=O)c3c(O)c2C1(C)C)C=CC(C)(C)O5 (configuration not stated),x,-3.8,-20,x,x,x,-4,2,9,-0.9
O=C(CCOc1ccccc1)N1CCN(S(=O)(=O)c2ccccc2F)CC1,-6,0.0,x,-5,2.0,-4,x,1,x,0.8
COc1cc(S(=O)(=O)NCc2ccncc2)c(OC)cc1Br,-9,0.5,2,10,-2.3,1,-11,-13,-13,0.0
O=C(COC(=O)C1=COCCO1)Nc1ccc(F)c(F)c1,-4,0.9,1,18,-0.2,13,-17,x,2,-0.6
Cc1ccc(S(=O)(=O)NCCC(=O)Nc2ccc(C)c(Cl)c2)cc1C,-2,-5.9,-3,-48,-9.7,-34,1,-1,-2,-1.2
CCOC(=O)C(Cc1cc(C(C)=O)ccc1OC(C)C)C(=O)OCC,1,-16,-2,x,x,x,-11,7,-18,1.8
CCCN1C(=O)COc2ccc(-c3n[nH]c(=O)c4ccccc34)cc21,-17,7.4,-3,2,-2.4,5,9,x,-7,-0.5
CCOc1ccc(OCc2ccc(C(=O)Nc3ccc(Cl)cn3)o2)cc1,-3,0.0,-9,-11,-2.7,-3,u,-1,-47,-1.2
Cc1ccc(/C=N/n2cnc3sc(-c4ccccc4)cc3c2=O)o1,0,0.0,-2,x,x,x,-2,1,13,-2.3
O=C(O)c1cccc(S(=O)(=O)NCc2cccs2)c1,5,-7.2,-1,x,x,x,0,4,-3,0.7
Cc1ccc(S(=O)(=O)Nc2ccccc2F)cc1C(=O)N1CCN(c2ccccc2O)CC1,14,1.1,37,-78,-10.0,-57,x,-1,x,0.5
Cn1c(CCN2CCCCC2)nc2cc(NC(=O)COc3ccc(Cl)cc3)ccc21,4,-4.5,0,-6,0.0,-4,x,2,34,0.4
CCC1(CC)C(=O)N(C)C(=O)NC1=Nc1ccc(OC)cc1,-2,-1.0,-19,x,x,x,1,-2,-15,1.1
CC(C)OCCCNC(=O)C1CCC(CNS(=O)(=O)c2ccccc2)CC1 (configuration not stated),3,x,x,x,x,x,u,-4,2,1.1
O=C(C1=C(O)C(=O)N(CCN2CCOCC2)C1c1cccc(Br)c1)c1cccs1 (configuration not stated),-5,-3.8,-5,8,1.7,7,x,-9,-10,-0.2
NC(=S)c1cc2cc(Br)ccc2oc1=O,3,-4.8,-12,28,-5.0,20,-5,2,-6,-0.8
CSc1ccc(Cl)c(C(=O)NCCCn2ccnc2)c1,1,-3.7,3,5,-4.2,1,8,x,9,0.4
COc1ccccc1OCc1nnc(SCC(=O)N2CCCC2)o1,-1,-3.1,-2,5,0.5,9,-7,-2,-3,0.3
CC(C)c1csc(CN2CCCC(CNC(=O)c3cccc4ccccc34)C2)n1 (configuration not stated),-1,4.5,-2,-12,-1.7,-5,-9,-4,54,0.0
CCOC(=O)CCNC(=O)N1CCC(CCOc2ccccc2)(C(=O)OCC)CC1,1,-1.8,x,4,-3.4,-2,9,-5,2,-0.9

# Additional records follow:
structure,Beta2AR agonist,LANA-H2B inh,ALR H2O2 inh,Ecoli rRNA inh OD600,Ecoli rRNA inh RFP,Ecoli rRNA inh,Calb FLC,Beta cell apopt,T cruzi inh,A1 inh
CCC1Oc2ccc(C)cc2N(CC(=O)NCCN2CCOCC2)C1=O (configuration not stated),-1,0.4,-33,5,-2.5,2,1,-5,-2,1.2
Nn1c(SCC(=O)Nc2cc(S(=O)(=O)N3CCOCC3)ccc2Cl)nnc1-c1cccnc1,-1,-9.5,-1,7,0.4,17,21,-1,-1,1.3
OCC1(CO)COC(/C=C/c2ccccc2)=N1,-4,-0.3,2,11,4.4,0,-1,-12,-11,0.5
COC(=O)c1ccc(NC(=O)CSc2nnc(CNc3ccc(OC)cc3)n2C)cc1,-1,2.4,-7,x,x,x,u,-1,-7,0.0
COCCn1c(Cc2ccccc2)nnc1SCC(=O)N1CCCC1=O,-1,-0.1,11,x,x,x,x,-3,x,-0.8
O=C(NCC1COc2ccccc2O1)C1CCCN(S(=O)(=O)c2cnc[nH]2)C1 (configuration not stated),-2,2.4,-13,5,-2.4,3,-4,x,-3,2.1
CCn1c(SCc2cc(=O)[nH]c3ccccc23)nnc1C1CC1,-4,0.1,-2,x,x,x,34,2,-12,0.6
CC1(C)CC(=O)C(C(c2ccco2)C2C(=O)CC(C)(C)CC2=O)C(=O)C1,30,-2.3,83*,x,x,x,u,0,-5,0.2
N=c1c2c(ncn1CCN1CCOCC1)Oc1ccc3ccccc3c1C2c1ccccc1 (configuration not stated),2,1.3,-29,x,x,x,-21,19,20,0.4
O=C(NCCCN1CCOCC1)c1ccc2c(=O)n(-c3ccc(F)c(Cl)c3)c(=S)[nH]c2c1,5,0.8,x,-9,-3.6,-8,-8,-4,6,0.5
O=C(CN(c1ccccc1)S(=O)(=O)c1ccccc1)N1CCN(Cc2ccc3c(c2)OCO3)CC1,29,1.2,-1,x,x,x,-16,-3,27,-0.2
COC(=O)Nc1nn(-c2ccc(C)cc2)c(=O)c(C#N)c1C,-18,1.6,-30,8,11,7,6,-8,-8,0.3
Oc1ccc2nc(Cc3ccccc3)[nH]c2c1,-3,1.4,99*,x,x,x,-2,-3,1,0.0
CCOC(=O)C1C(=O)NCC2CCCC21 (configuration not stated),7,-2.8,17,x,x,x,-15,-1,1,-0.1
COc1ccc(S(=O)(=O)N2CCC(C)CC2)cc1OC,6,4.9,0,5,2.9,4,1,x,-14,0.9
CC(=O)Nc1nc2c(s1)C(=O)NCCC2,2,3.1,-8,23,3.2,15,5,-8,1,-0.4
CN(C(=O)c1ccc(NC(=O)Cc2cccc(NC(=O)C3CCN(C(=O)c4ccccc4)CC3)c2)cc1)C1CCCC1,-7,-5.8,2,-8,-0.2,-5,x,4,x,-0.8
COc1ccccc1Nc1nc(N)nc(CSC(=S)N2CC(C)CC(C)C2)n1 (configuration not stated),-1,0.4,-16,x,x,x,5,1,13,-0.7
Cn1nnc(NC(=O)c2ccco2)n1,8,1.0,-2,x,x,x,-16,-4,2,-0.1
O=C(CSc1nc2c(c(=O)n1-c1ccc(Cl)cc1)SCC2)Nc1ccc2c(c1)OCCO2,-3,0.4,x,4,0.0,3,x,-1,x,0.5
O=[N+]([O-])c1ccc(O)c(-c2nn[nH]n2)c1,4,-0.5,-7,x,x,x,2,1,-5,0.1
O=C1C2C3CCC(C3)C2C(=O)N1Cc1ccccc1 (configuration not stated),-2,-0.8,-2,x,x,x,-7,-5,-30,-0.2
